StopGo reporter: lowers the luciferase signal of an FMDV 2A StopGo reporter. human cells with a luciferase reporter of 2A StopGo recoding; control for the full effect not named in the record. Potency, µM (titrated, usually from 57.9 µM), without a hit: at the highest dose signal change, negative = less light. 410,000 compounds, 1.2% hits. AID 1159524; active = well fitted falling curve with a large enough effect; inconclusive = small, poorly fitted or top-dose-only effect; inactive = no such curve, though single readings can be large or run the other way; tested in HEK293T cells; note: % is set by controls: 0 for no effect and ±100 for the full control effect; nearly all actives have a fitted effect of over 45% in size; luciferase light after 4 h
RE007 growth inh: less growth of the S. pombe RE007 Vpr strain | S. pombe RE007 Vpr strain, BacTiter-Glo ATP luminescence, 24 h; control for the full effect not named in the record | Potency, µM (series often up to 92.2 µM), without a hit: top-dose activity change, negative = less growth | 360,000 compounds, 0.21% hits | AID 651644; active = well fitted falling curve with a large enough effect; inconclusive = small, poorly fitted or top-dose-only effect; inactive = no such curve, though single readings can be large or run the other way;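 note: % is set by controls: 0 for no effect and ±100 for the full control effect; nearly all actives have a fitted effect of over 50% in size; the assay follows cell death caused by Vpr and the record does not say whether a fall means rescue or toxicity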
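Fission yeast RE007 carrying one integrated HIV-1 vpr copy, seeded at OD 0.01 in PMG+AL medium with 23 nL pinned compound. Grown 24 h at 30 degrees; viability read by BacTiter-Glo luminescence after 5 min.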
MARV entry inh: blocks Marburg virus binding to or entry into cells; Marburg virus pseudotyped entry inhibition, cell reporter; control for the full effect not named in the record; about a third of the inactives were read at about 46 µM; Potency, µM (top dose mostly 37.8 µM), inactives show top-dose activity change, negative = inhibition, actives largely listed as inhibitors; 300,000 compounds, 1.8% hits; AID 540276; active = well fitted inhibition curve with a large enough effect; inconclusive = small, poorly fitted or top-dose-only effect, or effect the other way; inactive = flat fitted curve, though single readings scatter; tested in HEK293 cells; about a fifth of its hits are not listed in these tables; note: % is set by controls: 0 for no effect and ±100 for the full control effect; luciferase read-out
SARS PLP yeast: SARS-CoV PLP inhibition in yeast. 330,000 compounds, 0.19% hits. Potency, µM (highest dose often 32.9 µM), for inactives: at the top dose activity, positive = growth rescue. S. cerevisiae expressing SARS-CoV PLpro, growth rescue; control for the full effect not named in the record; active means well fitted rising curve with a large enough effect; inconclusive means small, poorly fitted or top-dose-only effect; inactive means no such curve, though single readings can be large or run the other way; note: 0% is about no effect; nearly all actives have a fitted effect of over 55% in size; growth read by luminescence after 48 h
Cruzain inh Det: cruzain (T. cruzi) inhibition with detergent | Potency, µM, without a hit: max response, negative = inhibition, hits mostly inhibitors | 200,000 compounds, 0.43% hits | purified cruzain, Z-FR-AMC fluorescence, 0.01% Triton | P25779 | AID 1478;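 note: plate controls were neutral wells for no effect and buffer without enzyme for full effect; nearly all actives have a fitted effect of over 40% in size; top concentration of the series not given in the record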
Target sequence (P25779 123-467 limits assumed): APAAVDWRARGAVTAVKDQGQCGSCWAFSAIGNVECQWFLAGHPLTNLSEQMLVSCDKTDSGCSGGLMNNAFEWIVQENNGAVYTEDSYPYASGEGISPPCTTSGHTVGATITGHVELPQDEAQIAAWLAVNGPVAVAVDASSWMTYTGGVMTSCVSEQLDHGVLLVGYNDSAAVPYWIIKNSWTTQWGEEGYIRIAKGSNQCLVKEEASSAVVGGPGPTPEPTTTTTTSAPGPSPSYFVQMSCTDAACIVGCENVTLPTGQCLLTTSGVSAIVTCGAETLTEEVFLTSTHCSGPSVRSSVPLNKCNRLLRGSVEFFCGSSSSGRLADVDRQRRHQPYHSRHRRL
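Cruzain (1.5 nM) preincubated 15 min at RT with compound in 100 mM sodium acetate pH 5.5, 5 mM DTT, 0.01% Triton X-100. Reaction started with 2 uM Z-FR-AMC; AMC fluorescence (ex 360/em 450 nm) change over 60 s gave rate.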
Cruzain noTriton: inhibitors of Trypanosoma cruzi cruzain without detergent; P25779; purified cruzain, Z-FR-AMC fluorescence, no detergent; Potency, µM, for the others: max response, negative = inhibition, actives largely listed as inhibitors; 200,000 compounds, 2.3% hits; AID 1476;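 note: plate controls were enzyme without inhibitor for no effect and buffer without enzyme for full effect; nearly all actives have a fitted effect of over 40% in size; top concentration of the series not given in the record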
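Purified cruzain at 1.5 nM, pre-incubated 15 min with compound at room temperature in 100 mM sodium acetate pH 5.5, 5 mM DTT, 0.00005% Triton X-100. Reaction started with 2 uM Z-FR-AMC; AMC fluorescence increase over 60 s gives rate.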
LASV entry inh: inhibitors of Lassa virus binding or cell entry; 300,000 compounds, 1.2% hits; Potency, µM (highest dose often 37.9 µM), for the others: top-dose activity change, negative = inhibition, usual class: inhibitors; AID 540256; Lassa virus pseudotype entry inhibition, cell reporter; control for the full effect not named in the record; active means well fitted inhibition curve with a large enough effect; inconclusive means small, poorly fitted or top-dose-only effect, or effect the other way; inactive means flat fitted curve, though single readings scatter; tested in HEK293 cells; note: % is set by controls: 0 for no effect and ±100 for the full control effect; nearly all actives have a fitted effect of over 50% in size; luciferase read-out
NS1 inh: influenza NS1 inhibition; S. cerevisiae slowed by influenza A NS1, growth recovery by OD600; Potency, µM (highest dose often 46.1 µM), for inactives: at the highest dose activity, positive = more growth; 270,000 compounds, 0.4% hits; active means well fitted rising curve with a large enough effect; inconclusive means small, poorly fitted or top-dose-only effect; inactive means no such curve, though single readings can be large or run the other way; note: nearly all actives have a fitted effect of over 50% in size
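In this qHTS, NS1 from influenza A is expressed in budding yeast, where it slows growth. Cells are switched from glucose to 2% galactose medium (pH 6.0, -URA), treated with compound, and growth recovery is read at OD600.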
Starred values were filed as active, the others as inactive; ? = inconclusive; . = no result given; & = joins results of further samples; [ ] = dose if it differs, or a comment. Unless noted, calls come from the whole dose curve; as a rule, active = well fitted curve in the direction sought with a large enough effect; inconclusive = small, poorly fitted or top-dose-only effect, or another doubt; inactive = no such curve, though single readings can be large; an effect the other way counts as inactive or inconclusive. Potency is the fitted concentration of half-maximal effect.

SMILES	StopGo reporter	RE007 growth inh	MARV entry inh	SARS PLP yeast	Cruzain inh Det	Cruzain noTriton	LASV entry inh	NS1 inh
c1ccc(-c2nnc3sc(CN4CCc5ccccc54)cn23)cc1	-28%	3%	?	-62%	-2.8%	-16%	-26%	-127%
C=CCSc1nc2c(c(C3CC=CCC3)c1C#N)CCC2 (stereo not drawn)	?	-13%	-18%	-28%	-7.1%	-11%	0%	-5%
CCCCn1c(/N=C/c2ccc3c(c2)OCO3)nc2ccccc21	-26%	-10%	-14%	-5%	-8.4%	-3%	?	-7%
COc1ccc(C(=O)Nc2ccccc2)cc1NC(=O)c1cccs1	3%	2%	-6%	-6%	.	.	2%	-41%
Cc1cc(Br)cc(C)c1OCC(=O)NNC(=O)c1cccs1	?	3%	?	-1%	.	.	8%	-18%
O=C(COc1cccc(C(F)(F)F)c1)NCCCN1CCCC1=O	13%	10%	-7%	0%	1.2%	10%	-1%	1%
O=C(NCC1COc2ccccc2O1)c1ccc(F)c(S(=O)(=O)N2CCOCC2)c1 (stereo not drawn)	-7%	-19%	-7%	-2%	.	.	5%	.
CCN(CC(=O)Nc1cc(Cl)ccc1C)C(=O)C1CC(=O)N(Cc2ccccc2)C1 (stereo not drawn)	-6%	-11%	5%[46.1 µM]	0%	.	.	-5%	.
O=C(c1ccc(-c2ccccc2)c(F)c1)C1CCCN(CCCn2cccn2)C1 (stereo not drawn)	-28%	-15%	.	-2%	.	.	.	0%
Cc1cc(N=Nc2ccc(Cl)cc2)cc(CN2CCCC2)c1O	13%	-16%	.	0%	.	.	.	0%
CCCCCN(C(=O)CCC(=O)OCCOc1ccc(OC)cc1)c1c(N)n(CCCC)c(=O)[nH]c1=O	1%	6%	-3%	8%	.	.	-19%	.
O=C(NCCOc1ccccc1F)c1cc([N+](=O)[O-])ccc1N1CCOCC1	-2%	-6%	?	-8%	.	.	-8%[46.1 µM]	-10%
CCCn1c(=N)c(C(=O)NC2CCCC2)cc2c(=O)n3cc(C)ccc3nc21	-11%	.	0%[46.1 µM]	.	-3.0%	15%	5%[46.1 µM]	.
Cc1c(Cl)cccc1-c1ccc(/C=N/n2cnnc2)o1	-3%	-4%	5%	-16%	-6.2%	-8%	1%	-79%
CN1CCCN(C(=O)CNC(=O)c2ccc(Cl)cc2Cl)CC1	-6%	-6%	-2%[46.1 µM]	2%	.	.	-1%[46.1 µM]	.
CCOC(=O)C1CCN(C(=O)CN2C(=O)c3cccnc3Oc3ccccc32)CC1	-21%	0%	.	-2%	.	.	.	-15%
CC(=O)Nc1cc(C(=O)N2CCN(C)CC2)ccc1Sc1ccc(C)cc1	-12%	-12%	1%	-10%	3.7%	-1%	16%	3%
Cc1ccc(NC(=O)c2ccc3c(=O)n4c(nc3c2)CCC4)cc1S(=O)(=O)N(C)C	-24%	-11%	-17%	2%	.	.	3%	.
COc1ccc(CC(=O)NCC2CCCN(Cc3cccc(C(F)(F)F)c3)C2)cc1 (stereo not drawn)	-6%	-1%	?	-4%	.	.	1%	-9%
Cc1cc(NC(=O)c2ccccc2)ncc1NC(=O)c1ccco1	5%	?	-16%	-25%	3.4%	1%	-29%	?
CC1CCN(C2(O)C(=O)Nc3ccc(Br)cc32)CC1 (stereo not drawn)	8%	-4%	-7%[46.1 µM]	1%	.	.	-29%[46.1 µM]	.
Cc1ccc(S(=O)(=O)N2c3ccccc3-c3c(ssc3=S)C2(C)C)cc1	?	7%	?	-44%	-5.6%	?	?	17%
CSc1nnc(-c2sc3cc(C(F)(F)F)cnc3c2-c2cccnc2)n1C	-23%	-3%	-17%[46.1 µM]	-3%	0.1%	-3%	-21%	-2%
CCOc1ccc(N(CC(=O)NCc2ccc(F)cc2)C(=O)c2ccco2)cc1	5%	24%	?	0%	.	.	?	4%
Cc1ccc(S(=O)(=O)n2ccc(-c3ccc(OCc4c(F)cccc4Cl)cc3)n2)cc1	-8%	-6%	7%	9%	1.9%	32µM*	-13%	3%
CCCCN(CC)C(=O)Cn1nc(Cc2ccncc2)c2ccccc2c1=O	-12%	-6%	.	0%	.	.	.	2%
CCC1Oc2ccccc2N(CC(=O)NC2CCCCC2C)C1=O (stereo not drawn)	-3%	-23%	-1%[46.1 µM]	1%	.	.	-1%[46.1 µM]	-8%
Cc1ccc(-c2noc(/C=C/c3ccccc3)n2)cc1	0%	-5%	18%	3%	-3.9%	-5%	?	-3%
Cc1nc2cc(Nc3nnc(-c4ccccc4)c4ccccc34)ccc2n1C	.	15%	-8%	-2%	-5.9%	4%	-23%	-10%
Cn1c(=O)c2c(nc(Oc3ccc4c(c3)OCO4)n2Cc2ccc(Br)cc2)n(C)c1=O	?	13%	15%&15%&15%[46.1 µM]	-1%	.	.	17%	-1%
Cc1sc2ncn(CCC(=O)O)c(=O)c2c1C	-26%	-4%	1%	-6%	-0.4%	14%	-3%	4%
CC1CN(C(=O)CCNC(=O)c2ccc(Cl)cc2)CC(C)O1 (stereo not drawn)	21%	7%	.	2%	.	.	.	-2%
CCc1ccccc1NC(=O)CSc1ncc(S(=O)(=O)c2ccccc2)c(=O)[nH]1	-15%	.	1%[46.1 µM]	.	-2.4%	1%	.	.
Cc1ccc(OCc2nnc(SCCN3CCOCC3)n2C)cc1	13%	9%	-11%	-4%	2.9%	3%	13%	-2%
O=C(NC1CCCC1)c1ccc(CS(=O)Cc2ccccc2Cl)o1 (stereo not drawn)	19%	7%	.	3%	.	.	.	1%
O=C(Nc1nccs1)C1Cc2ccccc2CN1S(=O)(=O)c1ccc(F)cc1 (stereo not drawn)	-34%	29%	?	3%	-1.7%	-9%	?	-6%
CCOC(=O)C1CCN(C(=O)COC(=O)CNS(=O)(=O)c2ccc(SC)c([N+](=O)[O-])c2)CC1	-4%	6%	11%	.	.	.	-14%	.
COc1ccc(OC)c(NC(=O)CSc2nnc(Cn3c(=O)sc4ccccc43)n2C)c1	-16%	1%	.	-15%	-4.5%	16%	.	1%
CCOC(=O)/C(C(N)=NCCO)=C(/O)c1ccccc1	0%	1%	-17%	-13%	3.3%	5%	-12%	-2%
COc1ccc(N(C(=O)c2snc(C(N)=O)c2N)C(C(=O)NC2CCCC2)c2ccco2)cc1 (stereo not drawn)	-5%	2%	?	-1%	.	.	-27%[46.1 µM]	4%
Cc1cccc(N/N=C2/COC(C)(C)CC2=O)c1	47%[activator]	-12%	-24%	-20%	-14%	8%	-23%	3%
CCCOc1ccc(/C=C/C(=O)Nc2ccc([N+](=O)[O-])cc2C)cc1OC	0%	2%	?	2%	7.6%	6%	-23%	-10%
Cc1ccc(OCC(=O)Nc2ccc(C(=O)OCc3cc(=O)n4c(C)csc4n3)cc2)cc1	-3%	.	.	.	-1.7%	-1%	11%[46.1 µM]	.
Cc1ccc(NC(=O)Nc2ccc(F)cc2)cc1Cl	27%	7%	?	-1%	.	.	4%[46.1 µM]	1%
COc1ccccc1NS(=O)(=O)c1ccc2c(c1)n(C)c(=O)n2C	10%	11%	-5%	-5%	1.4%	5%	-26%	-5%
N#CC1(C#N)C(C(=O)C23CC4CC(CC(C4)C2)C3)C12CCOCC2 (stereo not drawn)	?	-8%	-21%	2%	.	.	?	.
CS(=O)(=O)N(CC(=O)NC1CCCCCC1)Cc1ccccc1	-24%	-13%	1%	1%	6.1%	6%	3%	?
CC(=O)c1c(C)[nH]c(C(=O)COC(=O)c2c(-c3ccccc3)noc2C)c1C	-12%	22%	?	1%	.	.	-25%	.
COC(=O)[C@@H]1C[C@@]2(O)[C@@H](O)[C@@H](O)[C@@H](O)C[C@H]2N1Cc1cc(OC)cc(OC)c1	16%	4%	.	-1%	1.3%	-2%	.	7%
O=C(C[n+]1ccccc1)N/N=C/c1cccc(Cl)c1Cl	-6%	2%	.	0%	.	.	.	2%
(continued)
SMILES	StopGo reporter	RE007 growth inh	MARV entry inh	SARS PLP yeast	Cruzain inh Det	Cruzain noTriton	LASV entry inh	NS1 inh
Cc1ccc(-c2nc(C(=O)NCc3ccc(Cl)cc3)c3n2CCCCC3)cc1	-29%	.	.	.	-6.0%	-4%	-20%[46.1 µM]	.
S=P(NCCSCc1ccccc1)(N1CC1)N1CC1	5%	-12%	?	.	.	.	0%[46.1 µM]	.
O=C(CNCc1ccc(F)cc1)Nc1ccccc1-c1ccccc1	0%	3%	?	7%	-1.8%	2%	?	-31%
Nc1ccc2c(c1)C(=O)C(=O)c1ccccc1-2	5.6µM*	25µM*	5.6µM*	-44%	22µM*	?	?	-211%
CCOc1ccc(Sc2cc(C(=O)NCc3ccc(C)cc3)c3ccccc3n2)cc1	?	.	.	.	0.5%	-8%	6%[46.1 µM]	.
CCCC(=O)Nc1ccc(-c2cn3cccnc3n2)cc1	38%[activator]	-10%	13%[46.1 µM]	0%	.	.	-9%	-2%
C=CCNC(=O)c1ccccc1NC(=O)c1ccc(Cl)c(S(=O)(=O)Nc2cc(C)ccc2C)c1	52%[activator]	-2%	?	5%	-0.9%	-6%	?	-7%
Cc1nnc(SCC(=O)NC(=O)NC(C)(C)C)n1N	-4%	5%	7%	-1%	4.5%	-2%	-5%	-12%
Cc1cc(=O)oc(C)c1C(=O)NCCCN1C(C)CCCC1C (stereo not drawn)	-5%	-16%	7%	5%	-3.5%	6%	2%	2%
Cc1cccc(NC(=O)/C(C#N)=C/c2ccccc2O)n1	9%	-4%	.	0%	.	.	.	-6%
C[C@H](NC(=O)c1ccccc1F)C(=O)N1CCC2(CC1)NCCc1[nH]cnc12	3%	-7%	4%[46.1 µM]	-3%	.	.	?	7%
NC(=O)c1c(NC(=O)CN2CCCC2)sc2c1CCCC2	11%	-1%	0%	2%	-3.9%	-9%	0%	-4%
N#Cc1c(C(F)(F)F)cc(-c2ccc(F)cc2)nc1SCC(=O)Nc1ccccc1	-12%	.	5%[46.1 µM]	.	-1.3%	12%	-3%[46.1 µM]	.
Cc1cc(C)c(S(=O)(=O)NCc2ccc3c(c2)OCO3)cc1C	60%[activator]	-1%	.	-9%	.	.	.	-39%
COc1ccc(/C=C/C(=O)NCCCN2CCCC2)cc1	-10%	-17%	.	0%	.	.	.	2%

An unsorted share of the library; about 4.6% have a hit in one of these screens.
